gsp antag: qHTS for Antagonists of gsp, the Etiologic Mutation Responsible for Fibrous Dysplasia/McCune-Albright Syndrome: qHTS | gsp-mutant cells, cAMP HTRF, 30 min; control for the full effect not named in the record | Potency, µM (top dose mostly 76.9 µM), for inactives: at the highest dose activity change, negative = inhibition, hits mostly inhibitors | actives 0.4% (n = 340,000) | AID 624288, 2012; active = falling curve of any shape with a large fitted effect; inconclusive = falling curve, mostly with a smaller effect; inactive = flat or rising curve; cell line not stated here;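 note: intracellular cAMP measured with PDE inhibitor Ro 20-1724 present during compound exposure; potency is the fitted concentration of half-maximal effect; % is set by controls: 0 for no effect and ±100 for the full control effect; nearly all actives have a fitted effect of over 65% in size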
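Cells, 2000/well, grown 16–24 h in DMEM 10% FBS with 0.5 mg/ml G418, then compounds plus […] (300 uM addition stock), 30 min at 37C. cAMP read by HTRF (cAMP-d2 and anti-cAMP antibody-K in lysis buffer) after 30 min RT.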
TRPML1 inh: qHTS for Inhibitors of the Human Mucolipin Transient Receptor Potential 1 (TRPML1) | Mucolipin-1 (Homo sapiens), Q9GZU1 | TRPML1-inducible cells, Ca2+ dye fluorescence, FDSS; stronger effect = lower value; inhibition of EC80 agonist-evoked calcium signal | activity change, negative = inhibition, % (test concentration not listed) | actives 0.02% (n = 390,000) | AID 624415, 2012; in the data active means activity change below about -50%; inconclusive means about -30% to -50%; inactive means above about -30%;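 note: stimulus is agonist 54-4 at its EC80 concentration; % is set by controls: 0 for no effect and ±100 for the full control effect; compound concentration not given in the record; the text of the record puts the active cut at -80%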
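Calcium fluorescence in TRPML1-DL cells induced overnight with Tet: a 110 s read after compound pin addition, then a 110 s antagonist read after challenge with 54-4 at 4 uM final (EC80).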
ClpP mod: qHTS Assay for Activators of ClpP. ATP-dependent Clp protease proteolytic subunit (Bacillus subtilis (strain 168)), P80244. purified B. subtilis ClpP, FRET peptide cleavage, 20 min. Potency, µM (series often up to 57.5 µM), inactives show at the top dose activity change, negative = active. actives 1.9% (n = 340,000). AID 651965, 2013; active = well fitted falling curve with a large enough effect; inconclusive = small, poorly fitted or top-dose-only effect; inactive = no such curve, though single readings can be large or run the other way; note: potency is the fitted concentration of half-maximal effect; the source files actives as falling curves though it sought activators and does not explain the sign; nearly all actives have a fitted effect of over 65% in size; many hits overshoot -100%
Target sequence (P80244 whole entry, looked up): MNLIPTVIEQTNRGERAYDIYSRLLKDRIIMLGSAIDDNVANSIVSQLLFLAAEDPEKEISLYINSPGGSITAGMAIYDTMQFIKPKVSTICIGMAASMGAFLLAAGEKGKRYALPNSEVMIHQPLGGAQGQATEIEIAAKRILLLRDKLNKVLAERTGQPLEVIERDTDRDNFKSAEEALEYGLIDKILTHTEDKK
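Purified B. subtilis ClpP, 10 microg/mL final in Tris/HCl pH8 with KCl, BSA, glycerol and Tween-20, cleaved an Abz/nitrotyrosine-quenched decapeptide. Fluorescence (ex 320, em 430) was read at 0 and 20 min at room temperature. Delta was normalized to 5.8 microM ADEP and DMSO/no-enzyme controls.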
gsp ag: qHTS for Agonist of gsp, the Etiologic Mutation Responsible for Fibrous Dysplasia/McCune-Albright Syndrome: qHTS | gsp mutant cells, cAMP HTRF, 30 min; control for the full effect not named in the record | actives 0.13% (n = 340,000) | AID 624287, 2012 | Potency, µM (titrated, usually from 76.9 µM), inactives show at the top dose activation (cAMP increase), usual class: activators; active = well fitted activation curve with a large enough effect; inconclusive = small, poorly fitted or top-dose-only effect, or another doubt; inactive = no such curve, though single readings can be large or run the other way; cell line not stated here;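 note: phosphodiesterase inhibitor Ro 20-1724 added with compounds to block cAMP breakdown; potency is the fitted concentration of half-maximal effect; nearly all actives have a fitted effect of over 60% in size; about a fifth of the inactives were tested at one dose only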
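Cells stably selected in G418 were plated at 2000/well, grown 16-24 hr, then given compounds in DMSO with the PDE inhibitor […] (300 uM solution added) for 30 min at 37C; cAMP was read by HTRF.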
Menin-MLL FL inh: qHTS Assay for Inhibitors Targeting the Menin-MLL Interaction in MLL Related Leukemias: Competition With Fluorescein Labeled MLL-derived Peptide; 290,000 tested, under 10 active; Fluorescence polarization, fluorescein-MLL peptide displacement from menin; AID 1766, 2009; FP activity change, % at 61.4 µM; inconclusive = falling polarisation curve, or a change in total fluorescence; inactive = total fluorescence flat and polarisation flat or rising; no compound was filed as active; the % refers to the polarisation; negative = inhibition;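 note: % of control where 0% means no effect; inhibitors lower the polarisation; unlabelled MLL peptide was the positive control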
TRPV1 potentiator: HTS Assay for Compounds that Act as Potentiators of the Vanilloid Receptor 1. actives 0.02% (n = 320,000). TRPV1-expressing cells, Fluo-8 calcium influx, capsaicin EC20 potentiation; host cell line not named in the record; control for the full effect not named in the record. AID 540277, 2011. potentiation, % at 8.33 µM. Transient receptor potential cation channel subfamily V member 1 (Homo sapiens), Q8NER1; active means potentiation above 80%; inconclusive means 30% to 80%; inactive means below 30%; note: 0% is about no effect
Target sequence (Q8NER1 whole entry, looked up): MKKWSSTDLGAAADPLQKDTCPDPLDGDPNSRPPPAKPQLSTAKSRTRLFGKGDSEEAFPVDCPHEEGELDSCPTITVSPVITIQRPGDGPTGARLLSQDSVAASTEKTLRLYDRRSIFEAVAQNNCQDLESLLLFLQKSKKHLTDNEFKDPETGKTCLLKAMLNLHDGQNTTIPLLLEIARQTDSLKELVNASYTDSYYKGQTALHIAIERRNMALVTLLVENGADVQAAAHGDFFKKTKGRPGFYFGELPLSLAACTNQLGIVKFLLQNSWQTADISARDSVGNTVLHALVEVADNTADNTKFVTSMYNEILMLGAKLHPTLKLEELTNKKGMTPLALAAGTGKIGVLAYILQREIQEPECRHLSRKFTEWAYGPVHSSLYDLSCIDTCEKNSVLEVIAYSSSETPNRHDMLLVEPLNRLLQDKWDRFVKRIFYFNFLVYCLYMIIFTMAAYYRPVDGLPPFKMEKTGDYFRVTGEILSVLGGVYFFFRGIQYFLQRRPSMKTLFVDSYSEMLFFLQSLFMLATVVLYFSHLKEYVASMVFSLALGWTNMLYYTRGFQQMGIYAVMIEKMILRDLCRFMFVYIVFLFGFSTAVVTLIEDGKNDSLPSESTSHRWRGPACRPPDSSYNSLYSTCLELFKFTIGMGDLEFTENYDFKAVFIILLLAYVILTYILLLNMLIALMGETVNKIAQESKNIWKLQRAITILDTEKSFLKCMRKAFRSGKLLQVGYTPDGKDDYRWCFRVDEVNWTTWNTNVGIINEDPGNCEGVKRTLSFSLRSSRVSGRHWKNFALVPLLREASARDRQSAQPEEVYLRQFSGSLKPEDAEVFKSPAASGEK
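TRPV1-expressing cells were cultured overnight at 35.5C and loaded with Fluo-8 calcium dye for 40 to 90 min at room temperature. After a 10 s baseline, compound was added and calcium influx was read kinetically for 3 min (ex 480/em 520 nm).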
Sfp inh: qHTS Assay for Inhibitors of Bacillus subtilis Sfp phosphopantetheinyl transferase (PPTase); Potency, µM, without a hit: max response, negative = inhibition, usual class: inhibitors; 4'-phosphopantetheinyl transferase ffp (Bacillus subtilis), Q9F4F7; AID 1490, 2009; Biochemical Sfp PPTase activity, qHTS; actives 3.5% (n = 310,000); active = well fitted inhibition curve with a large enough effect; inconclusive = small, poorly fitted or top-dose-only effect, or another doubt; inactive = no such curve, though single readings can be large or run the other way;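 note: the enzyme is Sfp with the accession as filed and its product quenches rhodamine fluorescence; potency is the fitted concentration of half-maximal effect; 0% = enzyme reaction without inhibitor and -100% = no enzyme wells; top concentration of the series not given in the record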
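After 15 min at room temperature with compound, 15 nM Sfp received 5 uM rhodamine-CoA plus 12.5 uM BHQ-2-ybbR (50 mM Hepes pH 7.6, 10 mM MgCl2). Rate came from the fluorescence difference over 30 min, ex 525/em 598 nm.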
* = called active by the depositor; ? = inconclusive; nt = not tested or not shown; & = joins results of further samples; [ ] = remark or other dose.

SMILES | gsp antag | TRPML1 inh | ClpP mod | gsp ag | Menin-MLL FL inh | TRPV1 potentiator | Sfp inh
Cc1cccc(N2CCN(C(=O)c3ccc4c(c3)OCCO4)CC2C)c1 (stereo not given) | 14.0% | -4.1 | nt | 5.3%[15.4 µM] | 0.5 | -8.0 | 3.6%
Nc1nc(-c2ccc(Cl)cc2Cl)cn1N | -0.3% | -17.1 | -4.0% | 21.3% | 2.8 | 5.2 | 10.1%
CCN1CCN(C(=O)c2cc(-c3cccnc3)nc3ccc(Br)cc23)CC1 | 9.3% | -0.2 | -0.5% | ? | -1.5 | 13.7 | 13.8%
COc1cn(-c2ccccc2)nc1C(=O)Nc1ccccc1 | -21.3% | -0.1 | nt | 10.9%[15.4 µM] | 1.9 | -14.0 | -3.6%
S=C(NCc1ccco1)N1CCN(C(c2ccccc2)c2ccccc2)CC1 | -4.1% | -15.9 | -1.9% | -0.5% | 4.9 | nt | 2.6%
O=C1NNC(c2ccccc2)=N/C1=C\c1ccco1 | -4.5% | -11.2 | nt | 2.2% | ? | 9.0 | 35.5µM*
Cc1c(C(=O)N2CCOCC2)sc2ncnc(N3CCc4ccccc4C3)c12 | 1.5% | -5.9 | -22.1% | ? | 0.3 | -13.0 | 7.0%
O=C(NCCCn1ccnc1)c1cc(-c2ccc3c(c2)OCO3)on1 | -1.3% | 28.1 | -0.4% | -25.5% | 3.2 | 5.8 | 15.5%
Cc1ccccc1NC(=O)CN1CCC(C(=O)c2ccc3c(c2)OCCO3)CC1 | ? | 2.8 | nt | -2.4%[15.4 µM] | -2.4 | -11.2 | 7.9%
Cc1cc(C(=O)N/N=C/c2c(C)n(C)c3ccccc23)n[nH]1 | -14.4% | -9.1 | nt | -1.8%[15.4 µM] | 2.9 | 1.4 | 5.0%
O=C(Nc1ccc(Cl)cc1)Nc1nnc(/C=C/c2ccccc2)s1 | -6.1% | -0.6 | nt | -3.2%[15.4 µM] | 3.1 | 3.5 | -4.1%
CCN(CC)CCNc1ncnc2c1sc1nc(N3CCOCC3)c3c(c12)CC(C)(C)SC3 | 4.6% | -21.5 | 0.3% | -8.8% | 5.8 | 4.1 | 7.0%
COc1ccc(C(=O)CN2C(=O)NC3(CCCc4ccccc43)C2=O)c(OC)c1 (stereo not given) | 22.7% | -7.0 | -2.7% | ? | nt | -22.9 | 8.6%
COc1ccc(CN(C)C(=O)c2cc(-c3ccccc3)nc3ccc(C)cc23)c(OC)c1 | nt | 13.5 | ? | -41.0%[inhibitor] | nt | nt | nt
COc1ccccc1Oc1ccc(S(=O)(=O)Nc2cccnc2)cc1 | ? | 6.6 | -1.2% | 15.9% | 9.1 | -10.6 | 5.9%
CN1CCN(S(=O)(=O)c2ccc(Cl)cc2)CC1 | 3.3%&1.7% | 1.0&26.6 | -1.0%&-2.1% | 6.2%&-10.2% | 2.9 | ? | 15.9%
CCN(CC)CCOc1ccc(/C(=C(/Cl)c2ccccc2)c2ccccc2)cc1 | -9.5%&3.4% | -8.1&2.7 | -12.3%&-1.5% | nt | 0.4&0.3 | -3.0&-4.3 | ?
Cc1ccc2cc(CCNC(=O)c3cccs3)c(=O)[nH]c2c1C | -14.5% | 42.5 | ? | 23.0% | -2.4 | 16.9 | 14.7%
OCC[C@H]1C[C@@H](O)[C@H](O)[C@]2(OCCCc3ccccc32)O1 | 2.3% | 10.7 | 1.9% | 19.5% | nt | -6.2 | nt
COCCNC(=O)CCCCCN1C(=O)CCC1=O | 2.9%[15.4 µM] | 12.5 | 1.3% | 36.3% | 2.7 | ? | 5.6%
COc1cccc(/C=N/NC(=O)c2c(-c3ccccc3)noc2C)c1O | 6.2% | 12.4 | -5.1% | -8.0% | 5.1 | -12.9 | 3.3%
Cc1cccc(C2CC(c3ccc(F)cc3)Nc3nc(N)nn32)c1 (stereo not given) | -2.2% | 0.0 | -0.4% | -18.2% | 4.0 | nt | 13.6%
CC1(C)CC(Nc2ccc(Nc3ccccc3)cc2)CC(C)(C)N1 | -18.4% | 3.6 | -0.2% | -53.1%[inhibitor] | 2.5 | -22.6 | 20µM*
CCc1c(C)nc(SCC(=O)N2CCc3ccccc32)[nH]c1=O | nt | nt | nt | nt | 5.7 | 11.4 | 3.4%
Nc1nc(-c2nc3ccccc3[nH]2)cs1 | 3.7% | -2.2 | ? | 0.3% | 2.9 | -9.3 | 13.7%

More records.
SMILES | gsp antag | TRPML1 inh | ClpP mod | gsp ag | Menin-MLL FL inh | TRPV1 potentiator | Sfp inh
O=C(Nc1ccccc1N1CCOCC1)c1cccnc1 | 9.7% | 1.7 | 0.7% | 0.5% | -0.7 | 4.1 | 15.3%
COc1ccc(/C=C(\NC(=O)c2ccc(OC)c(OC)c2)C(=O)N2CCN(C)CC2)cc1 | -6.2% | -7.2 | nt | 4.2%[15.4 µM] | nt | -0.4 | 12.2%
COC(=O)c1cc(C(=O)Nc2ccc(S(N)(=O)=O)cc2)cc([N+](=O)[O-])c1 | 2.1% | 2.6 | nt | 0.7% | 4.3 | 2.1 | -7.1%
COc1cc(NC(=O)c2cccs2)c(C(=O)OCC(=O)NC(C)c2ccccc2)cc1OC (stereo not given) | -6.8% | 23.5 | 5.0% | 1.6% | 2.5 | -1.5 | -7.5%
COc1ccc(C2CC(=O)c3cnc(NC(=O)c4ccccc4OC)nc3C2)c(OC)c1 (stereo not given) | -6.7% | 55.2 | -0.5% | 21.6% | 2.0 | 2.6 | 9.2%
COc1ccccc1C(=O)NCC(=O)OC(C)C(=O)NC1CCCCC1C (stereo not given) | 2.8% | 17.5 | -5.1% | 2.4% | nt | -3.4 | nt
N#CCCn1c(C2CCCCC2)nc2ccccc21 | 0.3% | -2.3 | -9.5% | -5.3% | -1.1 | 1.5 | 8.7%
Cc1onc(-c2ccccc2)c1C(=O)Nc1ccc(S(=O)(=O)N2CCOCC2)cc1 | -8.5% | 13.0 | nt | -2.1% | 3.5 | -4.5 | 37.2%[activator]
CCOc1ccc(C(=O)OCC(=O)c2c(N)n(C)c(=O)n(C)c2=O)cc1OCC | -5.7% | -6.4 | 0.7% | 7.6% | -0.5 | -6.0 | 7.9%
Cc1cccc(Nc2c([N+](=O)[O-])cc(C(=O)N3CC(=O)Nc4ccccc43)cc2[N+](=O)[O-])c1 | -13.2% | 18.4 | 0.1% | -16.9% | -3.0 | 24.5 | 15.6%
CN(CC(=O)Nc1ccc(Cl)c(Cl)c1)CC(=O)N1CCc2ccccc21 | nt | 11.4 | 1.0% | -28.4% | nt | nt | nt
COC(=O)c1ccc(S(=O)(=O)NNC(=O)c2ccc(S(=O)(=O)N3CCCCC3)cc2)cc1 | -10.7% | 2.7 | -1.2% | 13.9% | 4.6 | 0.8 | 8.1%
Cc1cc(O)c(/C=N/OCc2ccc(Cl)cc2Cl)c(=O)o1 | nt | 7.9 | nt | -0.7%[15.4 µM] | -1.1 | 7.0 | -2.1%
Cc1c(C)n(CCc2ccccc2)c2ncnc(NCCO)c12 | -23.8% | -1.5 | -12.4% | -33.8%[inhibitor] | 0.5 | -25.0 | -4.9%
CCOc1ccc(NC(=O)N2CCC(c3ccc(C)cc3)C2)cc1 (stereo not given) | 1.3% | -18.8&19.0 | -0.4%&-7.8% | -37.5% | 2.7 | -13.2 | -10.8%
CCOC(=O)c1c(C)[nH]c(C(=O)COC(=O)/C=C/c2ccc(OC(F)F)cc2)c1C | -10.5% | 25.8 | 0.8% | -53.4%[inhibitor] | -1.1 | 2.5 | -2.3%
COc1ccc(C(C)NC(=O)c2ccncc2)cc1 (stereo not given) | 6.7% | -2.4 | 0.6% | 0.6%[15.4 µM] | 0.3 | 11.6 | 25.0%
Cn1c(N)c(C(=O)COc2ccc(C#N)cc2)c(=O)n(C)c1=O | 29.0% | -4.6 | -5.0% | 144.9%[15.4 µM] | -0.9 | 5.4 | 15.7%
CC(=O)c1ccc(/C=C/c2nc3ccccc3n2C)o1 | -1.9% | -1.0 | nt | ? | ? | 2.5 | 50.1µM*
CCO[C@H]1OC(C(=O)O)=C[C@@H](C)[C@@H]1CCCO | -1.5% | 0.1 | 0.3% | nt | -4.2 | -1.6 | 2.9%
COc1ccc(CC(=O)NNC(=O)c2cnccn2)cc1 | 2.8% | -9.4 | -2.7% | 0.7% | 0.9 | 5.1 | 56.2µM*
C=CCCC(=O)N1C[C@H]2CON(C)[C@H]2C[C@H]1c1cccc(N2CCOCC2)c1 | nt | 1.9 | -3.7% | ? | nt | nt | nt
O=S(=O)(NC1=NCCC1)c1ccc(F)cc1F | 4.6% | -12.3 | 0.3% | -0.2%[15.4 µM] | -1.9 | 3.5 | 12.1%
N#Cc1ccccc1NC(=O)COC(=O)CCc1ccccc1 | -0.6% | -10.5 | nt | -10.9%[15.4 µM] | 1.8 | 2.2 | 7.5%
COc1ccccc1N1CCN(C2CCCN(Cc3ccc(Cl)cc3)C2)CC1 (stereo not given) | 8.4% | -3.2 | nt | -34.2%[inhibitor] | 2.8 | -2.9 | 8.6%
Cc1cc(SC(C)C(=O)Nc2ncc(Cl)cc2Cl)nc2ccccc12 (stereo not given) | 3.6% | 21.6 | -3.8% | ? | 2.3 | -7.3 | 4.7%
COc1ccc(NC(=O)COC(=O)c2cccn2C)cc1S(=O)(=O)N1CCCCC1 | -7.1% | 31.9 | nt | -3.1% | nt | nt | nt
